Screens: PubChem BioAssay, several laboratories
LANA-H2A inh – blocks KSHV LANA binding to histone H2A/H2B; Q9QR71; cell-free LANA-H2A/H2B peptide, fluorescence polarization; inhibition, % (no concentration beside the values); hit rate 0.6% among 320,000; AID 2629; in the data active means inhibition mostly above about 10%, no sharp cut-off; inactive means mostly below about 6.7%;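 further: stock transfer was 7.5 nL into about 10 µL; 0% = median of vehicle wells and 100% = median of positive control wells; one replicate is shown; the record names a cut of 25% in any replicate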
Calb FLC – C. albicans growth modulation with fluconazole. C. albicans CaCi-2 (fluconazole-resistant clinical isolate) + fluconazole, Alamar Blue growth, 48 h. growth inhibition, % (concentration not given with the values). hit rate 0.57% among 300,000. AID 1979;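 active means most replicates above 75%; inconclusive means exactly half above 75%; inactive means most below 75%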;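 further: all wells also contain fluconazole at 8 µg/ml as a sub-toxic cotreatment; 0% = median of DMSO wells and 100% = median of geldanamycin control wells; wells of about 8 µL received 7.5 nL stock; the first replicate is given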
RanGTP-Imp inh – disruptors of Ran-importin-beta complex formation – biochemical, FRET, CFP-Ran, YFP-importin-beta, homogeneous, primary screen. hit rate 1.1% among 300,000. cell-free CFP-Ran/YFP-importin-beta FRET ratio. inhibition, % (concentration not given with the values);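 active means most replicates above 15%; inconclusive means exactly half above 15%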;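 further: 0% = DMSO wells and 100% = Ran loaded with GDP instead of GTP; wells of about 40 µL received 100 nL stock; the first replicate is given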
Vif TR-FRET – HIV-1 Vif–A3G interaction blockers – biochemical, TR-FRET, GST-Vif 1-94, biotin-A3G peptide, dose response retest, primary screen (AID 1117319) | TR-FRET GST-Vif / biotin-A3G peptide binding; higher % means a stronger effect; test concentration not given here; strong numbers were not always called active | inhibition, %; hits with a dose series show IC50 in µM | hit rate 0.57% among 260,000;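 active means above the screen mean plus three standard deviations and confirmed in dose response; inconclusive means results disagree or hit not tested in dose response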;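 further: Vif residues 1-94 fused to GST binding biotinylated APOBEC3G peptide 110-148; 0% = full assay without inhibitor and 100% = GST in place of GST-Vif; retest series ran down from 100 µM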
A1 inh – inhibitors of the anti-apoptotic protein A1, read as caspase activation; hit rate 0.066% among 330,000; caspase activation, % (test concentration not listed); MEF A1-2A-BIM cells, Caspase-Glo 3/7 luminescence, 3 h; percent of clofoctol response, vehicle zero;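 active means over half of replicate activation scores above 10%, or exactly half above 10 with the replicate mean above 10; inconclusive means replicate mean below 10 yet half the replicates above 10; inactive means over half of replicates below 10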;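 further: wells of about 30 µL received 50 nL stock; many hits fall short of the cut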
Beta cell apopt – beta cell apoptosis inhibition. protection from apoptosis, % (test concentration not listed). hit rate 0.8% among 300,000. AID 435005. INS-1E cytokine-induced death, ATP luminescence, 48 h; percent of positive-control rescue, neutral wells zero;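 active means all replicates at 75% or more, or half of them and the mean; inconclusive means half reach 75% but not the mean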;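 further: 0% = cytokine-treated negative control wells and 100% = positive control rescue; higher means more ATP so stronger rescue from cytokine killing; wells of about 40 µL received 100 nL stock; the first replicate is given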
AF4-AF9 inh – blocks AF4 peptide binding to human AF9; hit rate 0.47% among 350,000; AID 651704; AlphaScreen, biotin-AF4 peptide binding to FLAG-AF9; inhibition, % at 10 µM;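 active means every replicate reaching a set inhibition limit, whatever the replicate mean, cut at about 25% in these data; inconclusive means mean inhibition reaches that limit but some replicates miss it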;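 further: 0% = plate neutral control median and 100% = total signal loss; the record names both 10 and 1 µM as test concentration; the first replicate is given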
Target sequence (P42568 whole entry, looked up): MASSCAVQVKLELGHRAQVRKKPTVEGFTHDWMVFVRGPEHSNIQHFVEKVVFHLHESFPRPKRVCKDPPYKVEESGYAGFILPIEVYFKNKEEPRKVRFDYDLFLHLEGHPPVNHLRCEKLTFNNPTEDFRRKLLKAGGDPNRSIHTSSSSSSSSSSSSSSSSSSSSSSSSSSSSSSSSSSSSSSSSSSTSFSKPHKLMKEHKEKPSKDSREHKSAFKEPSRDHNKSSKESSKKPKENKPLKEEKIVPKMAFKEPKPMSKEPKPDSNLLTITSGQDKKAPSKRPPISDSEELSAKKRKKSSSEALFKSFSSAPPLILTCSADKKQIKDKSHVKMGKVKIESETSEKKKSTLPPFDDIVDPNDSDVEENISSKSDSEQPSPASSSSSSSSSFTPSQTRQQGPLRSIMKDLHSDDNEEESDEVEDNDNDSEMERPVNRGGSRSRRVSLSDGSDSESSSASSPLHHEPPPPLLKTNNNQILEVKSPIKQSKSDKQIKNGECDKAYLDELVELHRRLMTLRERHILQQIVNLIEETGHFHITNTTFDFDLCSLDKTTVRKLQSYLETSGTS
T cruzi repl – blocks replication of Trypanosoma cruzi | T. cruzi beta-gal in NIH3T3, luminescence, 90 h | inhibition, % (test concentration not listed) | hit rate 1.4% among 300,000;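 active means mean inhibition across valid replicates above about 55%, limit read from the data; inconclusive means mean below that limit but half or more replicates reach it; inactive means mean below it, under half of replicates reach it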;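 further: signal also drops with host cell toxicity which is not excluded here; 0% = plate median of DMSO wells and 100% = zero luminescence signal; higher percent means less beta-gal luminescence so fewer parasites; stock transfer was 50 nL into about 50 µL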
Numbers without * were called inactive; ? = inconclusive; / = not tested or not shown; & = joins results of further samples.

Structure	LANA-H2A inh	Calb FLC	RanGTP-Imp inh	Vif TR-FRET	A1 inh	Beta cell apopt	AF4-AF9 inh	T cruzi repl
Cc1cccc(OCCC(=O)Nc2nnc(C)s2)c1	2.6	1	0.2	-2%	1.2	-4	-1.6	-15
CC(C)CNC(=O)NC(=O)COC(=O)C1CSC2(c3ccc(F)cc3)CCC(=O)N12 (stereo not given)	1.7	-2	-0.4	2%	0.5	/	-0.9	-7
COc1cccc(CNC(=O)CNS(=O)(=O)c2ccc(Br)s2)c1	1.2	22	6.9	/	0.1	-1	-1.0	0
CCOC(=O)c1c(N)sc2c1CCCC2=O	-2.1	15	-0.7	?	0.2	-5	-0.6	-5
O=C1C2C3C=CC(C4CC34)C2C(=O)N1c1nccs1 (stereo not given)	1.4	-9	1.3	14%	-0.1	2	/	-2
Cc1cc(N2CCc3ccccc32)n2ncnc2n1	0.5	-11	4.9	-12%	/	0	/	-2
CCOc1ccc(C(=O)Nc2cccc3cccnc23)cc1	-1.3	-7	3.1	/	-0.6	3	3.0	6
O=C(Cn1nnc(-c2ccccc2)n1)OCc1ccccc1	1.7	-8	2.8	2%	1.8	/	/	-7
COc1ccccc1-n1c(-c2cc(-c3ccco3)[nH]n2)n[nH]c1=S	14	-4	3.2	3.1µM*	0.2	6	-3.7	/
Cc1sc2nc(CSc3nc4ccccc4c(=O)n3CCCN3CCOCC3)[nH]c(=O)c2c1C	3.1	2	3.3	5%&-2%	0.3	-3	/	-1
CCC(C)S(=O)(=O)c1snnc1C (stereo not given)	2.9	1	2.2	-2%	-0.4	0	/	-19
COc1ccccc1NS(=O)(=O)c1cc(NC(=O)c2ccncc2)ccc1N1CCOCC1	-11	2	-1.4	/	1.9	37	/	10
Cn1c(=O)c2cn3ncccc3c2n(C)c1=O	/	12	-3.2	-3%	/	/	/	-20
O=C(NCc1ccccc1)C(c1ccccc1)N(C(=O)c1csnn1)c1ccccc1 (stereo not given)	-1.5	-6	4.4	-16%	0.2	-4	-3.4	11
CC(=O)Nc1ccc(S(=O)(=O)NC(C)C(=O)NCC(c2ccco2)N2CCCCC2)cc1 (stereo not given)	-2.4	/	/	8%	0.0	0	1.9	/
Cc1cnc(C(=O)OCC(=O)N2CCN(C(=O)c3ccco3)CC2)cn1	-6.4	-3	-0.8	0%	-0.2	/	-2.3	-4
O=C(Nc1ccncc1)c1ccccc1Cl	-2.4	-2	5.6	4%	1.0	-9	-5.0	-17
COc1ccc(CCN2CC(C(=O)NCCN3CCNC3=O)CCC2=O)cc1 (stereo not given)	-4.9	1	7.3	/	-1.0	-1	-3.2	-18
O=C(Nc1ccc(Cl)c(Cl)c1)Nc1ccc([N+](=O)[O-])cn1	0.0	13	1.4	13%	-0.2	16	-2.3	17
CC(=O)C1C(c2ccc([N+](=O)[O-])cc2)C2C(C)=NN=C2CC1(C)O (stereo not given)	0.4	-3	-0.1	11%	0.7	/	-2.0	-6
Cn1cc2cccc([N+](=O)[O-])c2n1	4.9	31	-0.6	5%	0.0	1	-12	-16
Cc1nc(SCC(=O)NC2CCS(=O)(=O)C2)c2c3c(sc2n1)CCC3 (stereo not given)	7.5	/	/	-8%	-0.9	-2	0.9	/
CCCNC(=O)c1noc2c1CCc1cc(OC)ccc1-2	3.8	1	0.3	/	-1.5	0	-3.9	-19
COc1cnc(-c2ccccn2)[nH]c1=O	-0.2	-15	0.2	3%	-1.5	15	-2.1	-17
CCCC(=O)Nc1nnc(C2CCCO2)s1 (stereo not given)	-2.1	-6	1.9	/	0.3	1	-3.9	2
O=C1C2C3C=CC(C3)C2C(=O)N1Cc1ccc(CN2C(=O)C3C4C=CC(C4)C3C2=O)cc1 (stereo not given)	10	-7	5.0	3%	1.4	-5	/	-6
O=C(NCC(c1ccco1)N1CCN(c2ccccc2F)CC1)C(=O)NC1CCCCC1 (stereo not given)	3.7	7	0.5	-11%	-0.1	/	-8.5	6
CCN(CC)S(=O)(=O)c1ccc(-c2ccc(S(=O)(=O)N(CC)CC)cc2)cc1	0.3	3	3.8	1%	0.2	21	/	40
Cc1ccc(O)c(Nc2ncnc3ccc([N+](=O)[O-])cc23)c1	-4.6	3	-3.8	/	1.7	-6	-9.9	15
CC(C)(C)NC(=O)C(c1ccccn1)N(C(=O)C1CSC(=O)C1)c1cccc(F)c1 (stereo not given)	-1.5	12	-2.0	-6%	0.5	-3	-3.1	-1
Cc1nc2ccccc2c(=O)n1/N=C/c1ccc(C(C)C)cc1	-0.5	1	1.8	-1%	0.9	-4	4.5	14
COc1ccc(NC(=O)c2cc3ccccc3o2)cc1	-0.4	-2	?	-5%	0.1	/	/	11
COc1ccccc1/C=C(\NC(=O)c1ccc(OC)c(OC)c1)C(=O)Nc1ccc([N+](=O)[O-])cc1	-1.3	3	5.0	/	1.0	-2	-0.2	-6
COc1cc(C(CCN2CCOCC2)c2c(OC)cc(OC)c3c(C)cc(=O)oc23)cc(OC)c1OC (stereo not given)	-1.0	-12	7.1	/	0.3	-7	2.5	15
Cc1ccc(C(=O)CSc2nc(N)cc(=O)[nH]2)cc1	7.2	5	-1.2	5%	-0.7	-8	/	4
Cc1ccc(CNC(=O)CSc2nnc3c(n2)[nH]c2ccc(F)cc23)cc1	2.1	5	4.5	/	0.3	4	-0.7	0
Cc1cccc(OCCCC(=O)Nc2nccs2)c1C	1.7	4	-3.9	?	-0.5	-1	2.2	-1
CC1Cc2ccccc2N1c1nc(C2CC2)nc2c1nnn2Cc1ccccc1 (stereo not given)	-0.9	-3	0.4	?	0.2	4	/	10
CCCCCn1cnnc1SCC(=O)c1ccc2c(c1)OCO2	-1.1	/	/	-10%	1.7	-1	2.3	/
NCCSc1c(-c2ccc(F)cc2)[nH]c2ccccc12	-15	-16	-0.1	0%	-0.2	2	-3.3	11
Cc1cccc(C(=O)NCC(=O)N2CCOCC2)c1	-5.4	0	7.6	1%	0.4	/	-0.5	-4
CC1CCCCC1NC(=O)CN(C)S(=O)(=O)c1cccc2nsnc12 (stereo not given)	-1.5	-7	-4.8	-12%&3%	0.2	2	/	-3
O=C(Cc1ccccc1)Nc1ccc2oc(-c3cccnc3)nc2c1	3.6	-2	?	-146%	0.9	3	/	-4
Cc1c(Cl)cccc1NC(=S)N1CCC(N(C)CC2CCCO2)CC1 (stereo not given)	2.8	-6	-3.1	-4%	?	-2	-3.9	7
O=C(CNS(=O)(=O)c1ccccc1)N/N=C/c1ccncc1	-1.9	/	/	-2%	1.4	-5	?	/
Clc1cccc(NC2=NCCC2)c1	2.2	/	/	2%	0.2	0	/	/
NC(=O)NCc1ccccc1	-7.3	8	2.5	-1%	0.6	-3	/	-5
Brc1ccc2nc3c(n2c1)CCCC3	-4.1	7	3.4	-6%	-0.7	5	/	-7
CC(C)(C)c1ccc(-c2nc3n(c(=O)c2C#N)CCS3)cc1	-1.8	-12	-2.8	/	0.5	-2	1.6	2
Cc1ccn(CC(C)C(=O)O)n1 (stereo not given)	6.4	1	4.2	/	0.1	-3	-1.4	-11
CCOC(=O)C1CCCN(C(=O)c2cc3nc(-c4ccc5c(c4)OCO5)cc(C(F)(F)F)n3n2)C1 (stereo not given)	2.9	2	8.4	1%	-0.3	-2	/	-9
O=C(Nc1ccccc1C(=O)NC(Cc1c[nH]c2ccccc12)C(=O)O)c1ccccc1 (stereo not given)	1.1	2	0.9	/	-0.4	-7	5.7	-6
CN(C)N1C(N)=C(C#N)C(c2ccccc2)C2=C1CCCC2=O (stereo not given)	-0.1	-1	-1.2	10%	0.1	-4	-2.3	9
CCOP(=O)(c1ccccc1Cl)C1(O)CCCCC1 (stereo not given)	-5.1	4	1.0	-4%	0.2	-1	/	-3
CSCCC(NC(=O)c1ccco1)C(=O)N(C)CC(=O)Nc1c(Cl)cccc1Cl (stereo not given)	-4.3	-1	2.3	-3%	-0.4	/	0.6	-1
Cc1ccc(-c2cn3c(n2)CCCC3)cc1	-1.6	-8	-6.4	2%	0.2	-4	/	5
O=C(O)CCN1CC2([N+](=O)[O-])C=CC(=O)C([N+](=O)[O-])(C1)C2CC(=O)c1ccccc1 (stereo not given)	-1.9	-7	-1.2	12%	-0.1	-6	0.3	0
CN1CCN(c2ccc([N+](=O)[O-])cc2NC(=O)c2ccco2)CC1	-0.8	4	-2.3	/	1.0	/	0.2	13
COc1ccc(C(=O)Nc2cccc(S(=O)(=O)N3CCCC3)c2)cc1S(=O)(=O)N1CCOCC1	-0.9	/	/	-5%	0.0	3	-0.1	/
COCCN(C(=O)c1ccco1)c1nnc(-c2ccc(OC)cc2)s1	-0.5	-1	-3.6	15%	-2.2	/	/	0

Additional records:
Structure	LANA-H2A inh	Calb FLC	RanGTP-Imp inh	Vif TR-FRET	A1 inh	Beta cell apopt	AF4-AF9 inh	T cruzi repl
Cc1cccc(NC(=O)NCC(F)(F)F)n1	-0.9	2	?	2%	0.7	/	/	-4
O=C1c2ccccc2C(=O)N1c1nc2nccc(-c3ccccc3)n2n1	0.8	4	1.0	?	-0.3	-8	/	-7
Cn1c(=O)c(-c2cc(Br)ccc2N)nc2ccccc21	2.0	7	-2.5	-5%	-2.2	4	/	-19
Cc1c(NS(=O)(=O)c2ccc3c(c2)OCCO3)cccc1-c1nc2cccnc2s1	3.6	1	-2.0	-5%	0.1	-25	6.1	5
O=C(NCCc1cn2ccccc2n1)c1ccccc1F	12	5	-1.5	6%	-0.5	-3	/	2
COc1ccc2cc(C(=O)C3CCCN(C(=O)c4cc5nc(C)cc(C)n5n4)C3)ccc2c1 (stereo not given)	-10	20	-1.0	2%	-0.3	1	0.7	-4
COc1ccc(CCNC(=O)CS(=O)(=O)c2cn(CC(=O)N3CCOCC3)c3ccccc23)cc1OC	3.2	8	1.1	-1%	0.3	-4	2.4	-15
COC(=O)c1sc(-c2ccc(C(C)(C)C)cc2)cc1NC(=O)/C=C/C(=O)O	-5.1	-2	4.5	24%	2.7	99*	3.3	-31
CC(=O)N1CCc2cc(S(=O)(=O)NCc3ccc(C)cc3)ccc21	0.1	2	-3.3	/	2.0	4	?	14
CC1=CCC2C(=O)N(c3ccc(C(=O)N4CCCCCC4)cc3)C(=O)C2C1 (stereo not given)	-0.3	21	1.1	9%	-0.4	-10	/	-15
Cc1ccc(S(=O)(=O)N2CCc3ccccc3C2)cc1C	-0.4	-2	-1.4	3%	0.9	-6	-4.9	25
CCc1nc(SCC(=O)N2CCOCC2)c2c(=O)n(C)c(=O)n(C)c2n1	1.7	-1	1.4	-1%	0.4	-5	-6.9	6
COc1ccc(NC(=O)CN(C)Cc2cccs2)cc1Cl	-8.0	-8	-0.7	/	0.2	4	-6.0	-7
O=C(NCCOC(=O)c1ccncc1)c1ccccc1	1.4	-4	0.3	2%	0.1	-4	/	-7
